Assay outcomes deposited in PubChem by several laboratories.
Arbovirus inh: antivirals against arbovirus infection. arbovirus infection cell-based antiviral screen. inhibition, % at 10 µM. 200,000 tested, 0.37% active. AID 1251;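 active = inhibition from about 30%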;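 note: bluetongue infection of BSR cells; cell survival read as ATP light after 72 h; 0% = infected wells without compound and 100% = uninfected wells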
RecA intein inh: Mtb RecA intein splicing inhibition; P9WHJ3; cell-free RecA intein splicing, fluorescence; inhibition, %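 (about 9 µM by stock and volumes)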; 290,000 tested, 0.75% active; AID 2221; in the data active = inhibition above about 30%; inconclusive = no clear call, values can overlap the other calls;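 note: 0% = vehicle wells and 100% = reference inhibitor control wells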
Target sequence (P9WHJ3 whole entry, looked up): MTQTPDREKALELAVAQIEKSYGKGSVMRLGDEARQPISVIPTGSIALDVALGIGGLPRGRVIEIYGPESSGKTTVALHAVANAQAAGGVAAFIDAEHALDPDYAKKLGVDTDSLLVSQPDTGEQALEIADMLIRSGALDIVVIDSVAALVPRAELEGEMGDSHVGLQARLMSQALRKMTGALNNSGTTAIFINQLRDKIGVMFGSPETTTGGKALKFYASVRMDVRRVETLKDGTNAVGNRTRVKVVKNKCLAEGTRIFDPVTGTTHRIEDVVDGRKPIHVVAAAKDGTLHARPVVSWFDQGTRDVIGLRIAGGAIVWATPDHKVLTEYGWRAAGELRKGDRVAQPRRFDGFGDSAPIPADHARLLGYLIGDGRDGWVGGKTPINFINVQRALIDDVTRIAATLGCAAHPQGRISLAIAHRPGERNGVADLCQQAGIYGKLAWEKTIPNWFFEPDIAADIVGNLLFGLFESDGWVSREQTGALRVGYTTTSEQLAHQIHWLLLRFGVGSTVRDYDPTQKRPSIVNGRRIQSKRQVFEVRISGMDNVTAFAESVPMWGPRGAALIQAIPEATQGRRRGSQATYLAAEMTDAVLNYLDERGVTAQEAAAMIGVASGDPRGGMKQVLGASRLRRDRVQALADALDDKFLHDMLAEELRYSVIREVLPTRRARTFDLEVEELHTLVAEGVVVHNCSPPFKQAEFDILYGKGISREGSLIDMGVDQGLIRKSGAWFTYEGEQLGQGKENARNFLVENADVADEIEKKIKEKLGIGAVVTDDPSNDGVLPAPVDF
YopH inh: blocks Yersinia enterocolitica YopH tyrosine phosphatase; inhibition, %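 (about 10 µM by stock and volumes)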; fluorescence Ex485/Em525; 140,000 tested, 0.16% active; AID 898;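 active = inhibition of 50% or more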;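 note: controls were vehicle for no effect and minimum signal wells for full effect; inactives centre near -20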
Mtb betalactam: beta-lactam sensitization of Mtb H37Rv | inhibition, % at 25 µM | M. tuberculosis H37Rv growth with meropenem, percent inhibition; hits of this screen are not shown here | 330,000 tested, 0.27% active;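 active = about 74% or more and at least 40 points above the plate without the antibiotic, then above 30% in a dose series; inconclusive = first-round hits that could not be retested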;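 note: growth measured after seven days incubation then overnight dye step; 0% = bacteria only wells and 100% = bacteria with antibiotic; twin plates without the antibiotic show which effects depend on it; some results filed as inactive read as strong as hits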
Mtb growth: M. tuberculosis H37Rv growth inhibitors, H37Rv strain (AID 1626); M. tuberculosis H37Rv growth inhibition; higher % means a stronger effect; one-dose inhibition, % at 10 µM; IC50 in µM for titrated hits; 220,000 tested, 0.95% active;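 active = confirmed in a dose series; inconclusive = inhibition above 80% but not taken into the dose series; inactive = below 80% or under 30% at every dose of the series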;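 note: bacteria incubated seven days before Alamar blue readout; 0% = bacteria only wells and 100% = bacteria with antibiotic wells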
Arbovirus inh repeat: second read-out of Arbovirus inh, no call of its own (marks repeat the call); inhibition, %; measured here: 10K subset replicate screen; many hits read low in the repeat;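 first of two repeat runs on a subset; 0% = infected and 100% = uninfected wells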
* marks the source's active call; other numbers are inactive results; ? = inconclusive; · = no result given. An excerpt. The share of hits here may be higher or lower than overall.

SMILES | Arbovirus inh | RecA intein inh | YopH inh | Mtb betalactam | Mtb growth | others
CN(C)c1ccc(NC(=O)CSc2nnc(-c3cccs3)n2Cc2ccco2)cc1 | -16 | -2.2 | -15 | -6 | 1%
O=C(Cc1ccccc1)NNC(=O)C1CCN(c2ncccn2)CC1 | 9 | -1.2 | · | 2 | -2%
O=C(/C=C/c1ccco1)NC(=S)Nc1ccc(C(=O)O)cc1 | · | -0.7 | · | 2 | ·
COc1ccc(Br)cc1/C=C/C(=O)NCC(=O)O | -5 | -3.0 | · | 0 | -3%
Cc1c(C(=O)Nc2ccccc2)sc2ncn(CC(=O)N3CCCCC3)c(=O)c12 | · | 1.9 | · | -1 | ·
CCOC(=O)c1c(NC(=S)Nc2ccc(C)cc2)sc2c1CCC2 | -9 | -1.5 | -13 | 1 | -7%
CC(C)=CCN1CCNC(=O)C1CC(=O)NCc1nc(C)c(C)s1 (configuration not stated) | 2 | -0.1 | · | -1 | 3%
COc1ccc(Nc2c3ccccc3nc3ccccc23)cc1 | · | 4.1 | · | 8 | ·
CCCN1C(=O)c2cc(C(=O)NC3CCCCCC3)ccc2C1O (configuration not stated) | -12 | -0.2 | -14 | -7 | -3%
Cc1nc2c(-c3ccc(F)cc3)c(C)nn2c(C)c1CCC(=O)NC(C)CCc1ccco1 (configuration not stated) | -13 | 1.6 | -7 | -1 | 7% | Arbovirus inh repeat=-6
O=C(/C=C/c1ccc(Cl)cc1)N(c1ccccn1)C1CCCCC1 | -5 | 3.0 | -27 | 5 | 16%
CCOC(=O)CSc1nc(C(C)(C)C)cc(C(F)(F)F)c1C#N | 2 | 0.7 | 5 | -5 | 9%
C/C(=N\N1CCN(c2ccccc2)CC1)c1ccncc1 | -9 | -2.8 | · | -10 | -8%
CCn1c(SCC(=O)NCc2cccs2)nnc1-c1cccs1 | -2 | 1.7 | 4 | -7 | -8%
CC(C)n1cc(/C=N/Nc2ccc(C(=O)O)cc2)c2ccccc21 | · | 0.4 | · | 9 | ·
COc1ccc(-c2nnn(-c3ccc(Cl)cc3Cl)c2N)cc1 | · | 1.8 | · | -10 | -9%
CC(Sc1nc(-c2ccccc2)cc(C(F)(F)F)n1)C(=O)Nc1sc2c(c1C(N)=O)CCC2 (configuration not stated) | 0 | 0.3 | -18 | -1 | 8%
CCOC(=O)CSc1nnc(Cc2cc(=O)[nH]c(=O)[nH]2)n1-c1cccc(OC)c1 | -4 | -0.1 | -38 | -1 | -6%
Cc1ccc2c(c1)N(Cc1ccccn1)C(=O)C(C)O2 (configuration not stated) | -3 | 0.6 | -8 | 0 | -1%
CCC(C)n1cnc2c(c1=O)c1nc3ccccc3nc1n2Cc1ccccc1OC (configuration not stated) | -2 | 17 | -34 | -6 | -2%

Overlap with the part before: 3 compounds, followed by the next part.
SMILES | Arbovirus inh | RecA intein inh | YopH inh | Mtb betalactam | Mtb growth | others
CCOC(=O)CSc1nnc(Cc2cc(=O)[nH]c(=O)[nH]2)n1-c1cccc(OC)c1 | -4 | -0.1 | -38 | -1 | -6%
Cc1ccc2c(c1)N(Cc1ccccn1)C(=O)C(C)O2 (configuration not stated) | -3 | 0.6 | -8 | 0 | -1%
CCC(C)n1cnc2c(c1=O)c1nc3ccccc3nc1n2Cc1ccccc1OC (configuration not stated) | -2 | 17 | -34 | -6 | -2%
COc1ccc(-c2nnc(NC(=O)C3CC3)o2)cc1 | 9 | 0.0 | · | 95 | 14%
CSc1nc2ccc(S(=O)(=O)N3CCCC3)cc2s1 | -3 | -8.4 | -4 | -3 | -3%
Cc1nc2nc[nH]n2c(=O)c1NS(=O)(=O)c1ccc(C(C)(C)C)cc1 | -5 | -2.0 | · | 5 | -2%
Cc1ccc(CN2CCN(C(=O)c3ccco3)CC2)cc1 | -3 | -7.7 | 40 | -17 | -4%
COc1cccc(NC(=O)COC(=O)C2C3CC4OC(=O)C2C4C3)c1 (configuration not stated) | · | 2.5 | · | -2 | ·
O=C(CCC(=O)NC1CCCCC1)Nc1cccnc1 | · | 0.8 | · | -2 | ·
COCC(=O)Nc1c(C(=O)Nc2ccc3c(c2)OCO3)oc2ccccc12 | · | -16 | · | -1 | ·
O=C(NCCCN1CCCC1=O)c1cccc(C(F)(F)F)c1 | 2 | -0.3 | 1 | -15 | -5%
CN(CC(=O)N1CCc2ccccc21)S(=O)(=O)c1cccs1 | 3 | -2.1 | -8 | 2 | -5%
CCc1c(C)nc(SCC(=O)Nc2c(C)n(C)n(-c3ccccc3)c2=O)[nH]c1=O | 5 | 1.2 | -38 | -13 | -2%
COc1ccc(S(=O)(=O)N2CCC3(CC2)OCCN3S(=O)(=O)c2cccs2)cc1 | · | 6.1 | · | -15 | ·
COc1ccc(NC(C)=[N+](C)CCNS(=O)(=O)c2ccc(Cl)cc2)cc1 | · | 3.2 | · | 96 | ·
COc1ccc(S(=O)(=O)N2CCCCCC2)cc1NC(=O)CN1C(=O)NC(C)(c2ccccc2)C1=O (configuration not stated) | · | 8.1 | · | 15 | ·
COc1ccc(NC(=O)CSc2nc3ccccc3n2-c2ccccc2)c([N+](=O)[O-])c1 | 2 | 14 | -50 | -2 | 9%
Cc1sc(NC(=O)c2ccccc2F)c(CN2CCCCC2C)c1C (configuration not stated) | 4 | 0.2 | -7 | 2 | -5%
COCCCn1c(Cc2csc(Nc3ccccc3)n2)nnc1SCC(N)=O | 0 | 2.8 | -3 | 5 | -8%
CN(C)C=Nc1ncc2c3ccccc3n(Cc3ccccc3)c2c1C#N | -1 | -4.1 | -31 | -3 | -1%
CSc1cccc(NC(=S)N2CCCN(Cc3ccc(F)cc3)C2)c1 | -22 | 5.7 | · | -4 | 4%
CCOc1ccc2[nH]c3c(NCCO)ncnc3c2c1 | · | 0.3 | · | 1 | ·
N#CC1=C(N)SC(N)=C(C#N)C1CCC1CCCCC1 | -28 | 6.0 | -15 | 2 | -14%

A run of entries from the list above, as a working copy:
SMILES | Arbovirus inh | RecA intein inh | YopH inh | Mtb betalactam | Mtb growth | others
COc1ccc(-c2nnc(NC(=O)C3CC3)o2)cc1 | 9 | 0.0 | · | 95 | 14%
CSc1nc2ccc(S(=O)(=O)N3CCCC3)cc2s1 | -3 | -8.4 | -4 | -3 | -3%

Remaining list, next part:
SMILES | Arbovirus inh | RecA intein inh | YopH inh | Mtb betalactam | Mtb growth | others
CCOc1ccc(OCc2cccc(C(=O)Nc3ccc(CN4CCCCC4)cc3)c2)cc1 | -38 | 1.5 | -15 | 2 | 5%
CCOC(=O)CN1CC23C=CC(O2)C(C(=O)NCc2ccc(C)cc2)C3C1=O (configuration not stated) | -1 | 0.7 | -22 | -14 | 2% | Arbovirus inh repeat=10
CC(Sc1nc2c(c(=O)n(C)c(=O)n2C)n1Cc1cc2c(cc1Cl)OCO2)C(=O)O (configuration not stated) | 3 | 0.4 | -67 | 0 | -4% | Arbovirus inh repeat=1
O=C(NCCN1CCN(C(=O)c2ccc(Br)cc2)CC1)c1ccc(Br)cc1 | · | 1.4 | · | -3 | ·
C=C1CCN([C@@H](CC(C)C)C(=O)NCc2ccc(Cl)cc2)S(=O)(=O)c2ccccc21 | · | 10 | · | -15 | 17%
CCc1nnc(NC(=O)CCC(=O)NCCc2ccccc2)s1 | · | -2.4 | · | -1 | ·
COc1cccc2sc(N(CCCN(C)C)C(=O)c3sc4ccccc4c3Cl)nc12 | -18 | 8.1 | -31 | -4 | 2%
Cc1ccc(SCc2nc(-c3ccccn3)no2)cc1 | 3 | 1.8 | -2 | -4 | 12%
COc1ccc(S(=O)(=O)NCc2csc(C)n2)cc1OC | · | 3.5 | · | ? | ·
COc1cc(NC(=O)c2cccc([N+](=O)[O-])c2)ccc1NC(=O)c1ccco1 | -1 | 0.8 | · | 2 | 3%
CCNc1nc(-c2cc(C)n(Cc3ccco3)c2C)cs1 | 4 | 6.8 | · | 1 | -1%
CCCN(CCC)CCNC(=O)C1(O)c2ccccc2NC(=O)N1c1cccc(OC)c1 (configuration not stated) | · | 0.7 | · | -5 | ·
Cc1cc(OCC(=O)N2CCN(c3ncccn3)CC2)ccc1Cl | · | 0.5 | · | 3 | ·
Cc1ccc(C2/C(=C(/O)c3ccc(OC(C)C)cc3)C(=O)C(=O)N2CCN2CCOCC2)cc1 (configuration not stated) | 2 | 1.6 | -44 | 1 | 1%
O=C(Nc1nnc(-c2ccc3c(c2)CCCC3)o1)c1ccccc1 | -17 | 2.1 | -1 | 96 | ?
COc1ccc(-c2[nH]c3ccccc3c2SCCNC(=O)c2cc3ccccc3oc2=O)cc1 | 10 | 10 | -26 | 60 | 66%
O=C(Nc1ccc(N2CCN(C(=O)c3ccc(Cl)cc3)CC2)cc1)c1ccc([N+](=O)[O-])o1 | -33 | -0.2 | · | · | <0.2µM*
COc1ccc(S(=O)(=O)Nc2cccnc2)cc1OC | · | 1.2 | · | -1 | ·
CC(O)c1c(OCc2ccccc2)ncnc1OCc1ccccc1 (configuration not stated) | -14 | 12 | 1 | 84 | 3%
COc1ccccc1NC1=C(Cl)C(=O)N(C2CCCCC2)C1=O | 24 | 13 | -22 | 2 | ·
CN(C)C(CNC(=O)C1CCN(S(=O)(=O)c2ccc(Cl)cc2)CC1)c1ccccc1 (configuration not stated) | · | -0.3 | · | 2 | ·
COc1ccccc1N(CC(=O)NCc1ccccc1)C(=O)CCC(=O)Nc1nccs1 | · | -2.8 | · | 5 | ·
O=C(NNc1ncccc1Cl)c1c(Cl)cccc1Cl | -5 | -2.3 | · | 42 | -1%
CCN(CC)C(=O)CSc1nc(N)c2c3c(sc2n1)CC(C)CC3 (configuration not stated) | -24 | 5.4 | -8 | 97 | 16%
CCc1ccc(CN(C)C(=O)CCc2nnc(Cc3cccc(C)c3)o2)nc1 | 7 | -1.8 | · | -3 | -7%
Cc1ccc(OCC(=O)NCc2ccc3c(c2)OCO3)c([N+](=O)[O-])n1 | 5 | 1.0 | · | -1 | 10%
CC(C)(CN)CC(=O)O | · | 0.5 | · | 3 | -9%
O=c1[nH]cc(S(=O)(=O)NCc2ccccc2)c(=O)[nH]1 | · | -2.0 | · | -1 | ·
CCOc1ccc(N2CC(O)(c3cccs3)[N+]3=C2CCCC3)cc1 (configuration not stated) | -13 | -1.3 | · | 99 | 77%
CC(=O)c1cccc(NC(=O)c2cnn(-c3ccccc3)c2C)c1 | · | -1.4 | · | -2 | ·
CCC1CCCCN1CCCNC(=O)C1CCCN(S(=O)(=O)N2CC(C)CC(C)C2)C1 (configuration not stated) | · | 1.1 | · | -8 | ·
CC1(c2nnc(-c3cccc(Cl)c3)o2)CC(c2c(Cl)cccc2Cl)=NO1 (configuration not stated) | · | 7.8 | · | -4 | -10%
COc1ccccc1C(=O)NNC(=O)c1ccc(Br)cc1 | · | -0.8 | · | 1 | ·
N#Cc1ccccc1S(=O)(=O)N1CCN(C(=O)c2cc(-c3ccccc3)nn2-c2ccccc2)CC1 | · | -0.4 | · | -4 | ·
COc1cc(C2C(C(C)=O)=C(C)Nc3ncnn32)ccc1O (configuration not stated) | 9 | -0.9 | 2 | -6 | 0%
Cc1c(C(=O)NCCCN2CCOCC2)sc2nc(-c3ccc(F)cc3)cn12 | -4 | 1.7 | 6 | 15 | -7%
CN(C)/C(=N\S(=O)(=O)c1ccccc1)c1ccc([N+](=O)[O-])cc1 | -5 | -4.8 | -17 | 1 | 0%
COc1ccc(C(=O)OCC(=O)NCC2CCCO2)cc1[N+](=O)[O-] (configuration not stated) | 5 | -6.4 | · | 5 | 7%
O=C(NN=C1CCCCCC1)c1ccc(Br)o1 | 8 | -1.4 | 0 | -4 | 10%
COc1ccc(NC(=O)COC(=O)c2c(F)cccc2Cl)cc1OC | 6 | · | · | -7 | 0%
COc1ccc(NC(=O)CSc2nnc(CNc3ccc(F)cc3)o2)c(OC)c1 | 6 | -1.9 | -18 | -6 | -13%
COc1ccc(C(CNC(=O)c2cccc(NS(=O)(=O)c3ccccc3)c2)N(C)C)cc1 (configuration not stated) | · | -0.3 | · | -9 | ·
O=C(NC(Cc1c[nH]c2ccccc12)C(=O)Nc1ccc(F)c([N+](=O)[O-])c1)c1cccs1 (configuration not stated) | -34 | 13 | -31 | 31 | 29%
CC1=Nn2c(nnc2-c2cc(-c3ccccc3)n[nH]2)SC1 | 9 | 1.1 | -17 | 13 | 5%
COc1ccc(C)cc1NS(=O)(=O)c1ccc2c(c1)NC(=O)C(C)S2 (configuration not stated) | · | -0.2 | · | 2 | ·
CC(C)(C)c1ccc(S(=O)(=O)N2CCN(c3ncccn3)CC2)cc1 | 2 | -3.8 | · | 0 | 10%
COc1cccc(CNc2ccc(N3CCCCC3)cc2)c1OC | -15 | · | 31 | 25 | -6%
COc1ccc2nc(C)cc(Nc3cccc(C(=O)O)c3)c2c1 | · | -1.7 | · | -4 | ·
